# HSV augment = HSV replication enhancement; HSV replication augmentation in cells, fold increase; 220,000 tested, 0.005% active; maximum fold increase;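 active = peak rise of 1.5-fold or more in the series; tested in PC3 cells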;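 also: first round at 10 µM; read as green reporter fluorescence; hits show the peak of a series up to 25 µM; 1 = signal of infected wells without compound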
# RGS16-Gao = regulators of human RGS16-Galphao interaction; 220,000 tested, 0.38% active; AID 1441; bead-based flow cytometry RGS16-Galphao binding, fluorescence; actives lie on both sides; O15492+P09471; binding response (% of control), % at 10 µM;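 active = below 25% or above 175%, edge rows of some plates excepted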;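 also: Galphao activated by GDP with aluminum fluoride before binding; 100% = wells without compound and 0% = beads without RGS; some results beyond the cut were filed as inactive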
# PKD1 kinase inh = inhibitors of human PKD1 kinase; Q15139; PKD1 kinase fluorescence polarization assay; inhibition, %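 (about 10 µM by stock and volumes)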; 200,000 tested, 0.056% active; AID 797;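 active = inhibition of 50% or more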;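 also: controls were vehicle for no effect and a reference inhibitor for full effect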
# Target sequence (Q15139 whole entry, looked up): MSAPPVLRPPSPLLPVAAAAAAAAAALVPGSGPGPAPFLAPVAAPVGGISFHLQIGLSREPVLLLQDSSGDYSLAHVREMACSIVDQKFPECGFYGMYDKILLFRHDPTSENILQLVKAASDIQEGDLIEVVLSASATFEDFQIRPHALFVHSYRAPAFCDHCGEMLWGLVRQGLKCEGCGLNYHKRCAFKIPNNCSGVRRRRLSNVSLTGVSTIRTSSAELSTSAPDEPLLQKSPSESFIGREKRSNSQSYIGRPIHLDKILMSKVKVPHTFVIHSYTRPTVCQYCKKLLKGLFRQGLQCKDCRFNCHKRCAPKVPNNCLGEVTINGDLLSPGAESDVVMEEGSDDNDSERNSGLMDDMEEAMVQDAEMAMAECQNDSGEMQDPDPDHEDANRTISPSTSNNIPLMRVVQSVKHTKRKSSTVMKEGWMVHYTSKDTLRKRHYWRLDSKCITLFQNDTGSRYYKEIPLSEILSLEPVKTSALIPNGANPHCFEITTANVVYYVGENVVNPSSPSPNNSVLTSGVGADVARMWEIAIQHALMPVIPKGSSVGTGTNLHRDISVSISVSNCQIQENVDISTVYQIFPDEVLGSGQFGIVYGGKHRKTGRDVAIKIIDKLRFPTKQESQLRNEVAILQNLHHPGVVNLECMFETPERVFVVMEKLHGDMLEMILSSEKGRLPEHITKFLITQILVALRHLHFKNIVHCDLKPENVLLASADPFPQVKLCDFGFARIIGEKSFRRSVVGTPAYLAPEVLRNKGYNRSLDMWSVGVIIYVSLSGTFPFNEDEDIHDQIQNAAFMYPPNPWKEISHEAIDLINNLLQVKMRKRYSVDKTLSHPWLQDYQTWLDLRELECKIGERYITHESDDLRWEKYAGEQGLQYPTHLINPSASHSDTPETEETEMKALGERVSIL
# GALR2 ag = agonists of human galanin receptor 2 (GALR2); GALR2-expressing cells, agonist activation read-out; 140,000 tested, 0.48% active; activation, %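 (tested at 5 µM)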; O43603;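 active = above mean plus 3 SD of all compounds, about 5% in these data, not always enough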;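 also: 0% = vehicle buffer wells and 100% = reference agonist at full effect; tested in CHO reporter cells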
# Insulin prom inh = TRM-6 insulin promoter activity inhibition; TRM-6 cells (human fetal islet line), insulin promoter-eGFP reporter, imaging; reporter expression induced with tamoxifen; inhibition, % at 2 µM; 130,000 tested, 0.9% active; AID 1273;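 active = inhibition above the mean plus 3 SD, with well images judged a real hit on visual review, cut at about 60% in these data, passing the limit was not always enough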
# Insulin prom inh cell count = further read-out of Insulin prom inh, marked with its call; normalized cell count, %; measured here: cell count, toxicity; reference of the scale not given here;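 cells exposed to compound for 48 h; stained nuclei by imaging scaled within each plate; lower means fewer cells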
# HSV augment primary fold = recorded beside HSV augment, whose call it bears; fold increase; compound at 10 µM; measured here: primary screen fold increase 10 uM; tested in PC3 cells;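 GFP signal in the first replicate; 1 = infected wells without compound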
# * = called active by the depositor; i = inactive; . = no result given; & = joins results of further samples.
# Below each SMILES: HSV augment	HSV augment primary fold	RGS16-Gao	PKD1 kinase inh	GALR2 ag	Insulin prom inh	Insulin prom inh cell count
Cc1noc(C)c1CSc1ncnc2sc3c(c12)CCC(C)C3 (stereo not drawn)
→ i	1	99.8	1.5	-1.3	-3.5	142.5
O=C(O)C(Cc1ccccc1)NS(=O)(=O)c1ccc2c(c1)OCCO2 (stereo not drawn)
→ i	1.07	106.6	-0.7	-1.9	50.0	104.3
c1ccc(OCCSc2nnnn2C2CCCCC2)cc1
→ .	.	.	-5.3	-3.2	.	.
CCOC(=O)c1ccc2nc(C)c(C)nc2c1
→ i	1.06	104.7	.	.	.	.
Clc1cnc(N/N=C/c2cccs2)c(Cl)c1
→ i	0.68	94.5	-9.8	-2.3	60.0	177.3
O=C1c2cccc(Sc3ccccc3)c2C(=O)c2c(Sc3ccccc3)cccc21
→ i	0.98	95.9	.	.	.	.
CCC(CC)NC(=O)CSc1nnc(-c2ccc(OC)cc2)n1C(C)C
→ i	0.78	101.2	-9.6	0.1	-34.5	77.7
CC(=O)Nc1ccc(S(=O)(=O)NNC(=O)COc2cc(C)ccc2C(C)C)cc1
→ i	0.95	98.8	3.8	0.1	-3.3	138.8
CC(C)(C)C(=O)O/N=C(\N)c1ccc(Br)cc1
→ i	1.12	100.5	.	.	.	.
OCc1cn(-c2ccccc2)nn1
→ i	1.01	120.1	2.4	.	11.1	85.0

# Other results:
# Below each SMILES: HSV augment	HSV augment primary fold	RGS16-Gao	PKD1 kinase inh	GALR2 ag	Insulin prom inh	Insulin prom inh cell count
Cc1sc2ncnc(OCC(=O)NC3CCS(=O)(=O)C3)c2c1C (stereo not drawn)
→ i	1	99.9	.	.	.	.
Oc1ccc(/C=N/n2cc(-c3ccccc3)[nH]c2=S)cc1
→ i	0.93	101.4	-0.2	.	33.3	116.4
CC(=O)Nc1ccc(C(=O)CSc2cc(C)c3cccc(C)c3n2)cc1
→ i	0.87	103.4	-8.9	0.6	-22.2	169.7
O=c1[nH]cc(O)c(=O)[nH]1
→ i	0.965	108.3	.	.	.	.
CC(=O)Nc1ccc(C(=O)NNC(=O)c2cc([N+](=O)[O-])cc([N+](=O)[O-])c2)cc1
→ i	1.1	106.6	-0.6	.	.	.
COc1ccc(/C=C/C(=O)c2cc(Cl)ccc2O)c(OC)c1
→ i	0.86	100.3	.	.	.	.
O=C(Nc1cccc(C(=O)N2CCN(c3ccc(F)cc3)CC2)c1)c1ccccc1
→ i	0.96	102.1	2.7	.	8.6	67.8
C=C(C)CSc1nc2c(c(=O)[nH]c(=O)n2C)n1Cc1ccccc1
→ i	0.71	101.5	.	.	.	.
CCOC(=O)c1c(NC(=O)/C=C/c2ccco2)sc(C)c1C
→ i	0.97	99.2	-12.8	-1.4	.	.
COc1ccccc1NC(=O)C1CCCN(S(=O)(=O)c2cnc[nH]2)C1 (stereo not drawn)
→ i	1.14	65.2	-6.5	-4.4	.	.

# (further entries)
# Below each SMILES: HSV augment	HSV augment primary fold	RGS16-Gao	PKD1 kinase inh	GALR2 ag	Insulin prom inh	Insulin prom inh cell count
CS(=O)(=O)N1CCN(c2ccc(Cl)cc2[N+](=O)[O-])CC1
→ i	1.12	102.8	-3.8	-0.7	.	.
Cc1[nH]c2ccccc2c1SCC(=O)N1CCCCCC1
→ i	1.1	107.0	-6.8	.	-104.9	66.7
CCCCn1c(SCC(=O)OC)nc2c1c(=O)n(C)c(=O)n2C
→ i	1	109.5	-10.1	-2.7	54.8	76.3
Cc1cc(Cl)ccc1Oc1ncc(-c2ccc(Cl)cc2)cn1
→ i	0.86	104.2	0.3	-2.4	-59.5	80.6
C[C@]12CCC(=O)C=C1CC[C@@H]1[C@@H]2[C@@H](O)C[C@@]2(C)[C@H]1CC[C@]2(O)C(=O)COC(=O)CCC(=O)O
→ i	0.78&0.89	103.4	-6.8&-11.6	-0.1&-1.3	-43.5&14.3	136.0&92.2
Cc1ccc(/C=c2\sc3n(c2=O)CN(c2ccc(Br)cc2)CN=3)o1
→ i	0.987	90.7	-10.2	-1.8	50.0	88.7
O=C(c1cccs1)n1nc(-c2ccccc2)nc1NCc1ccc(F)cc1
→ i	0.88	102.4	-2.7	-3.5	28.6	96.4
Cc1[nH]n(-c2ccccc2)c(=O)c1N=Nc1ccccc1C(=O)N1CCCCC1
→ i	0.87	106.5	.	.	.	.
CCNC(=S)N1C2CCC1CC(NC(=O)NC1CCCCC1)C2 (stereo not drawn)
→ i	1.01	104.8	-12.1	-3.8	30.0	133.0
c1ccc(Cn2c(CSc3nnnn3-c3ccccc3)nc3ccccc32)cc1
→ i	1.08	25.7	-1.4	-2.0	25.7	83.7

# Continued:
# Below each SMILES: HSV augment	HSV augment primary fold	RGS16-Gao	PKD1 kinase inh	GALR2 ag	Insulin prom inh	Insulin prom inh cell count
CCc1ccc(NC2CC(=O)N(c3ccc(OC)cc3OC)C2=O)cc1 (stereo not drawn)
→ i	0.86	108.6	-3.4	-2.4	21.1	118.6
CC(=O)c1sc(NC(=O)C(C)C)nc1C
→ i	0.933	103.1	1.2	0.1	-23.1	139.1
Cc1ccc(NC2OC(CO)C(O)C(O)C2O)cc1 (stereo not drawn)
→ i	0.9	104.0	0.6	-0.4	.	.
O=C1CC(NNc2ccccc2)C(=O)N1c1ccccc1 (stereo not drawn)
→ i	0.95	109.6	-12.5	-1.6	-44.8	107.7
C=C(C)C1CCC2(C(=O)O)CCC3(C)C(CCC4C5(C)C(C=O)C(O)C(C)(C)C5CCC43C)C12 (stereo not drawn)
→ i	0.79	97.3	.	.	.	.
COc1ccc(OC)c(/C=c2\sc3nc(-c4cccs4)nn3c2=O)c1
→ i	0.86	100.5	-0.6	-3.1	.	.
CCNC(=S)N/N=C(\C)c1ccc2ccccc2c1
→ i	0.99	98.7	0.8	.	.	.
Cc1cc(C)n2nc(SCC(=O)N/N=C/c3ccccn3)nc2n1
→ i	1.04	97.4	-0.4	-1.0	.	.
CCc1ccccc1N1CC23C=CC(O2)C(C(=O)OCC(C)C)C3C1=O (stereo not drawn)
→ i	1.15	60.4	9.4	-2.7	.	.
O=C1CC(N2CCN(c3ccc(F)cc3)CC2)C(=O)N1Cc1cccs1 (stereo not drawn)
→ i	1.13	96.2	-2.4	-1.2	50.0	42.4

# Further structures
# Below each SMILES: HSV augment	HSV augment primary fold	RGS16-Gao	PKD1 kinase inh	GALR2 ag	Insulin prom inh	Insulin prom inh cell count
COc1ccc(CCNC(=O)CCN2C(=O)COc3ccc(C)cc32)cc1OC
→ i	0.61	97.6	-11.7	-1.5	9.4	85.9
O=C(CSc1ccc2ccccc2c1Br)Nc1cccc(S(=O)(=O)NC2=NCCCCC2)c1
→ i	0.81	102.8	-4.3	-0.1	-11.1	121.4
Cc1ccccc1S(=O)(=O)NC1=NCCCCC1
→ i	1	113.1	-13.3	-0.6	-65.6	88.7
O=C(CCC(=O)N(CC(=O)NC1CCCCC1)Cc1cccs1)Nc1ccccn1
→ i	0.92	101.2	-2.8	.	-66.7	80.7
CCC(=O)N1c2ccc(S(=O)(=O)CCC(=O)NC3CCCC3)cc2CC1C (stereo not drawn)
→ .	.	96.5	-16.6	-2.1	12.5	161.9
CCOc1ccc(NC(=O)Cn2nnc(C(=O)NCc3ccco3)c2N)cc1
→ i	0.81	100.6	-6.5	-1.4	-20.9	118.3
O=C(COC(=O)C12CC3CC(CC(C3)C1)C2)Nc1ccc([N+](=O)[O-])cc1Cl
→ i	0.98	109.8	-3.1	0.4	18.2	131.8
O=C(O)Cc1ccc(-c2ccccc2-c2ccccc2)cc1
→ i	1.06	98.4	0.5	-2.0	-37.5	110.2
CCC(C)C(=O)Nc1nc(C)c(-c2csc(Nc3cc(OC)ccc3OC)n2)s1 (stereo not drawn)
→ i	0.85	99.8	-6.1	-0.4	-8.9	189.5
COC(=O)c1c(NC(=O)COC(=O)Cn2cnc3ccccc32)sc2c1CCCC2
→ i	0.9	89.3	11.4	-1.9	20.0	119.4

# An excerpt of these results, in CSV form:
SMILES,HSV augment,HSV augment primary fold,RGS16-Gao,PKD1 kinase inh,GALR2 ag,Insulin prom inh,Insulin prom inh cell count
COc1ccc(OC)c(/C=c2\sc3nc(-c4cccs4)nn3c2=O)c1,i,0.86,100.5,-0.6,-3.1,.,.
CCNC(=S)N/N=C(\C)c1ccc2ccccc2c1,i,0.99,98.7,0.8,.,.,.
Cc1cc(C)n2nc(SCC(=O)N/N=C/c3ccccn3)nc2n1,i,1.04,97.4,-0.4,-1.0,.,.
CCc1ccccc1N1CC23C=CC(O2)C(C(=O)OCC(C)C)C3C1=O (stereo not drawn),i,1.15,60.4,9.4,-2.7,.,.
O=C1CC(N2CCN(c3ccc(F)cc3)CC2)C(=O)N1Cc1cccs1 (stereo not drawn),i,1.13,96.2,-2.4,-1.2,50.0,42.4
COc1ccc(CCNC(=O)CCN2C(=O)COc3ccc(C)cc32)cc1OC,i,0.61,97.6,-11.7,-1.5,9.4,85.9
O=C(CSc1ccc2ccccc2c1Br)Nc1cccc(S(=O)(=O)NC2=NCCCCC2)c1,i,0.81,102.8,-4.3,-0.1,-11.1,121.4
Cc1ccccc1S(=O)(=O)NC1=NCCCCC1,i,1,113.1,-13.3,-0.6,-65.6,88.7
O=C(CCC(=O)N(CC(=O)NC1CCCCC1)Cc1cccs1)Nc1ccccn1,i,0.92,101.2,-2.8,.,-66.7,80.7
CCC(=O)N1c2ccc(S(=O)(=O)CCC(=O)NC3CCCC3)cc2CC1C (stereo not drawn),.,.,96.5,-16.6,-2.1,12.5,161.9
CCOc1ccc(NC(=O)Cn2nnc(C(=O)NCc3ccco3)c2N)cc1,i,0.81,100.6,-6.5,-1.4,-20.9,118.3
O=C(COC(=O)C12CC3CC(CC(C3)C1)C2)Nc1ccc([N+](=O)[O-])cc1Cl,i,0.98,109.8,-3.1,0.4,18.2,131.8

# (more compounds)
# Below each SMILES: HSV augment	HSV augment primary fold	RGS16-Gao	PKD1 kinase inh	GALR2 ag	Insulin prom inh	Insulin prom inh cell count
O=C(NC1CCCCC1)N1CCC(n2c(=O)[nH]c3ccccc32)CC1
→ i	0.82	105.7	-14.2	.	.	.
CCOc1ccc(-c2nnc3ccc(SCc4ccc(C(=O)OC)o4)nn23)cc1
→ i	0.88	118.3	3.4	-0.4	.	.
O=C(Nc1cccc(Cl)c1)c1ccc(NCC2CCCO2)c([N+](=O)[O-])c1 (stereo not drawn)
→ i	1.1	97.7	-1.4	-1.0	26.5	113.4
CCc1cc2cc3c(cc2nc1SCC(=O)Nc1cc(OC)c(OC)cc1C(=O)O)OCO3
→ i	1.01	105.5	2.0	.	5.6	154.4
COc1cccc(/C=N/NC(=O)c2ccc3nc[nH]c3c2)c1O
→ i	0.93	69.3	.	.	.	.
C[C@H]1[C@H](C)CC[C@]2(C(=O)O)CC[C@]3(C)C(=CC[C@@H]4[C@@]5(C)C[C@@H](O)[C@H](O)C(C)(C)[C@@H]5CC[C@]43C)[C@H]12
→ i	1	100.0	0.6	-0.6	30.0	115.2
COc1ccc(CCNC(=S)N(C)C)cc1OC
→ i	1.35	105.1	.	.	.	.
CC(C)(C)c1ccc(C(=O)NCC(=O)OCC(=O)Nc2ccc3c(c2)OCCO3)cc1
→ i	0.96	105.8	-9.8	-0.1	0.0	138.9
CCOC(=O)CCCCC(=O)c1[nH]c(=O)[nH]c1CN1CCOCC1
→ i	0.9	106.2	-13.0	-0.7	.	.
O=C(CSc1nnc(-c2ccncc2)n1CCc1ccccc1)N1CCCC1
→ i	0.61	93.2	.	.	.	.

# Next part:
# Below each SMILES: HSV augment	HSV augment primary fold	RGS16-Gao	PKD1 kinase inh	GALR2 ag	Insulin prom inh	Insulin prom inh cell count
Cc1cc(NC(=O)CSc2nnc(Cn3c(=O)sc4ccccc43)n2-c2ccccc2C)no1
→ .	.	96.5	-9.6	-0.5	.	.
CC(/C=N/NC(=O)c1ccco1)=C\c1ccccc1
→ i	0.92	103.4	-5.8	.	22.2	170.8
Cc1ccc(C)n1-c1cc([N+](=O)[O-])ccc1-n1ccnc1
→ i	1.02	106.3	.	.	.	.
Cc1ccoc1C(=O)NCCNc1ccc(Cl)cc1[N+](=O)[O-]
→ i	0.95	102.9	5.3	-1.2	-14.3	108.8
O=C(O)C1CCCCC1C(=O)Nc1ccc(F)c(F)c1 (stereo not drawn)
→ i	0.83	100.0	-8.8	0.4	-13.3	100.7
CN(C)c1ccc2c(=O)[nH][nH]c(=O)c2c1
→ i	0.87	107.0	1.4	.	33.3	123.2
CCOCc1nnc(NC(C)=O)s1
→ i	1.02	102.3	-5.3	-1.4	60.0	53.7
COCC(C)NS(=O)(=O)c1ccc(NC(=O)C(Cc2ccccc2)NC(N)=O)cc1 (stereo not drawn)
→ i	0.86	104.3	-3.5	-0.4	.	.
O=C(NNC(=O)c1cccnc1SCc1cccc([N+](=O)[O-])c1)c1cccnc1
→ i	1.04	120.2	2.9	-0.7	-35.1	119.7
COc1ccc(OC)c(NC(=O)c2cccc(Cn3cc(Br)c([N+](=O)[O-])n3)c2)c1
→ i	0.83	102.8	1.2	-1.0	-34.6	105.8
